# Screening data as filed in PubChem BioAssay.
# Rce1 inh: inhibitors of yeast Ras-converting enzyme; yeast membranes, quenched prenylated peptide cleavage fluorescence; Q03530; 290,000 tested, 0.27% active; calls only; AID 2563;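 active = fall in fluorescence gain of 50% or more versus controls, with final raw signal at or below 3038400; inconclusive = same 50% fall but final raw signal above 3038400; inactive = fall in fluorescence gain under 50%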;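 note: plate controls were neutral control wells for no effect and wells lacking membranes for full effect; tested at 10 µM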
# Target sequence (Q03530 whole entry, looked up): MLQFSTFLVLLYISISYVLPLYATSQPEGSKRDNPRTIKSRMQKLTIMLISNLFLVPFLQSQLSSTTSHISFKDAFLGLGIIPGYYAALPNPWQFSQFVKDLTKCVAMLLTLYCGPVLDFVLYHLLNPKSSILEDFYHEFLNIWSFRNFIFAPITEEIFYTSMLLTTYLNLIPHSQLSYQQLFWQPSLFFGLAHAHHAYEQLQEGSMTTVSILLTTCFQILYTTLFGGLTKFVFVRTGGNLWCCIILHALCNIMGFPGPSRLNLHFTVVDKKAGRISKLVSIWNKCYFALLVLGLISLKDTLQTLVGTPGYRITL
# PABP FP inh: blocks human PABP binding to poly(A) RNA | P11940 | fluorescence polarization | inhibition, % at 35 µM | 290,000 tested, 1% active | AID 2014;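 active = 50% or more with normal probe brightness, or confirmed in later tests; inconclusive = above 50% with abnormal brightness, or retests that disagree; inactive = below 50% or failed in later tests; about a fifth of its hits are not listed in these tables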;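 note: calls also rest on retests at 20 µM and on dose response follow-up; controls were probe without protein and protein plus probe with vehicle; some compounds called inactive have numbers as strong as hits; many hits fall short of the cut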
# Target sequence (P11940 whole entry, looked up): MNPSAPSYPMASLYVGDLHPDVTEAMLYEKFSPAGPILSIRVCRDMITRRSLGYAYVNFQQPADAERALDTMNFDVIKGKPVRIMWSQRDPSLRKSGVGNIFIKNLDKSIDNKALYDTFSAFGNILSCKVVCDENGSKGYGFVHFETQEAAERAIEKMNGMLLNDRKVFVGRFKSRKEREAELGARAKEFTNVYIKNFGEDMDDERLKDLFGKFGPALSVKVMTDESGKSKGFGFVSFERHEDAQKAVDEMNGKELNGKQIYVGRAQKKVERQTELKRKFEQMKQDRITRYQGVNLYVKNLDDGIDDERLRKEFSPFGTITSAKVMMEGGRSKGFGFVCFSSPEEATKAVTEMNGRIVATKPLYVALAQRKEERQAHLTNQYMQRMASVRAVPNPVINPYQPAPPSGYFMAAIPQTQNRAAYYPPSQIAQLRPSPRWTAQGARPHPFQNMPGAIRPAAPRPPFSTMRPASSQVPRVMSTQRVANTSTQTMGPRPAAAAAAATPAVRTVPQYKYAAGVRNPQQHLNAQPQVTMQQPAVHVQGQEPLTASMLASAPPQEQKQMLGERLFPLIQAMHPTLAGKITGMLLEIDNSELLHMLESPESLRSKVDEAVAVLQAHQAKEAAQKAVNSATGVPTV
# Env fusion inh: HIV envelope-mediated fusion inhibition; HeLa-JRFL Env/CEM21 cell fusion, luciferase; inhibition, % at 12.3 µM; 360,000 tested, 1.1% active; AID 651610;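 active = mean replicate inhibition score of at least 50 and every replicate individually at or above 50; inconclusive = only one of the two criteria met; inactive = mean below 50 and not all replicates reaching 50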;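 note: 0% = plate neutral controls and 100% = maraviroc near 300 nM; one replicate is shown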
# UUG fidelity: yeast start codon fidelity modulation; AID 602363; activity score, % at 18.7 µM; S. cerevisiae UUG-firefly luciferase reporter, luminescence/redox ratio; 350,000 tested, 0.13% active;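 active = replicate mean at a twofold rise or more, about +100% in these data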;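 note: firefly luciferase made from a UUG start codon reports start codon fidelity; reporter light over untreated wells divided by growth signal over untreated wells; some hits fall short of that in this replicate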
# MT1-MMP act inh: inhibitors of human MT1-MMP activation; P50281; HT1080 RFP-PRO-GFP cells, GFP/RFP ratio fluorescence, overnight; percent of plate control window, DMSO zero; GFP/RFP ratio change, % at 20 µM; 360,000 tested, 0.061% active; AID 651647;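 active = GFP/RFP ratio change of at least 30% with cell ATP level not reduced by more than half and red fluorescence within 50% of control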; note: strong numbers were not always called active
#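 Test system: HT1080 RFP-PRO-GFP cells; Benchmarks: DMSO and RFP-L50D-GFP cell wells; Timing: cells overnight before dosing, compound overnight, 37 °C, 5% CO2; Compound: one 20 µM compound dose with 1% DMSO; Read-out: GFP/RFP fluorescence ratio.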
# eIF4H FP inh: inhibitors of RNA binding by human eIF4H | Q15056 | inhibition, % at 35 µM | eIF4H fluorescence polarization binding assay | AID 2012 | 290,000 tested, 0.94% active;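 active = 50% or more with normal probe brightness, or confirmed in later tests; inconclusive = above 50% with abnormal brightness, or retests that disagree; inactive = below 50% or failed in later tests; about a fifth of its hits are not listed in these tables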;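 note: calls also rest on retests at 20 µM and on dose response follow-up; 0% = protein and probe with vehicle and 100% = probe without protein; strong numbers were not always called active; many hits fall short of the cut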
# CSC inhib: cancer stem cell inhibition. cancer stem cell-like cells viability, luminescence. inhibition, % at 7.5 µM. 300,000 tested, 1.1% active;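 active = mean at 75% or more and at least half the replicates too; inconclusive = mean and replicates disagree; tested in HMLE shEcad cells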;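 note: 0% = median of negative and 100% = median of positive control wells; the first replicate is given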
# eIF4H FP inh retest: recorded beside eIF4H FP inh, whose call it bears; inhibition, %; compound at 20 µM; confirmation average;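 mean of two retest wells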
# PABP FP inh retest: also measured in PABP FP inh; calls as there; inhibition, %; compound at 20 µM; confirmation repeats;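 mean of two retest wells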
# MT1-MMP act inh RFP: also measured in MT1-MMP act inh; calls as there; RFP signal change, %; measured here: RFP expression control read;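 0 = vehicle wells; hits needed this value within 50% of zero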
# * hit, by the source's call; i = inactive; ? = inconclusive; · = no result given.
SMILES,Rce1 inh,PABP FP inh,Env fusion inh,UUG fidelity,MT1-MMP act inh,MT1-MMP act inh RFP,eIF4H FP inh,CSC inhib,others
COc1cc(Nc2cccc(-c3ccccc3)n2)cc(OC)c1OC,·,·,-22,-3,3,-4,·,·,
Cc1onc(-c2ccccc2)c1C(=O)N1CCOCC1,i,-5,·,-9,4,3,-19,-2,
O=C(CCN1C(=O)c2ccccc2S1(=O)=O)Nc1cccc2ccccc12,i,6,-2,·,4,4,-12,0,
Cc1cc(NC(=O)CSc2nnnn2-c2ccc(C(C)C)cc2)no1,i,-3,-16,-15,4,-2,-11,·,
O=C(CCN1CCOCC1)Nc1ccc(Cl)cc1,i,8,1,-14,2,2,-1,-5,
COc1ccc(N(C(=O)c2cccc(OC)c2OC)C2C=CS(=O)(=O)C2)c(OC)c1 (centres undefined),i,-2,·,3,1,3,-1,-14,
COc1ccc(CNC(=O)c2cc(=O)c3ccccc3o2)cc1,i,-4,-8,-8,1,-2,-7,-5,
CCOC(=O)CNC(=O)CSc1nnc(-c2ccccc2)c(-c2ccccc2)n1,i,7,5,·,1,3,-5,1,
N#Cc1ccc(OCc2c(-c3ccccc3)nnn2CC(=O)O)cc1,·,·,-1,-19,-3,9,·,·,
O=C(Cc1ccccc1)N1N=C(c2ccncc2)CC1(O)C(F)(F)F (centres undefined),i,-4,16,-17,-1,-2,-4,·,
COc1ccc(OC)c(NC(=O)c2cc(S(=O)(=O)N3CCCC3)cn2C)c1,i,30,-19,-12,7,1,63,3,eIF4H FP inh retest=42;PABP FP inh retest=9
CCOC(=O)C1C(C(=O)OC)=C(C2=CCCCC2)c2ccccc2N1S(=O)(=O)C(F)(F)F (centres undefined),·,·,-89,10,1,-1,·,·,
Cc1ccc(-c2nnc(SCC(=O)N(C)C)nc2-c2ccc(C)cc2)cc1,i,-4,-8,-8,-5,-6,-7,-1,
O=C(Cc1ccccc1F)Nc1ccc(Cl)nc1,i,12,-6,-21,3,6,-5,-3,
Cc1cc(SCc2ccc(Cl)cc2)nc(=O)[nH]1,i,5,-12,-12,1,1,-4,4,
CC(=O)c1cc2c(cc1NC(=O)CN1CCC(Cc3ccccc3)CC1)OCO2,i,6,·,2,0,-9,12,-2,
COc1cccc(N2C(=O)Nc3ccc(Br)cc3C2(O)C(=O)NCCCOC(C)C)c1 (centres undefined),i,0,16,-8,2,1,-13,-11,
Cc1ccc(NC(=O)CNCc2ccccc2Cl)cc1S(=O)(=O)N(C)C,i,14,-5,-9,2,0,-2,-5,
CC(C)(C)OC(=O)C[C@H]1C/C=C\C[C@@H](CC(=O)N[C@@H](CO)Cc2ccccc2)C(=O)NC[C@@H](c2ccccc2)OC1=O,·,·,10,13,-10,-8,·,-16,
Cc1ccccc1NC(=O)c1cc(C(=O)c2cc(Cl)ccc2O)cn(-c2ccccc2C)c1=O,i,-4,-6,·,-32,-34,-6,9,
CC(C)NC(=S)N/N=C1\CCCc2ccccc21,i,-4,25,·,-4,-2,-8,0,
CCC/C(=N\NC(=O)C1CCCC1)c1ccccc1,i,3,·,-17,-3,2,-3,-4,
COCCCn1c(=S)[nH]c2sc3c(c2c1=O)CCCS3,i,1,-39,·,1,3,16,4,
Cc1cc(SCC(=O)c2ccccc2)nc(C)n1,i,-4,·,-14,4,7,0,-8,
O=C(CNC(=O)c1cccs1)N/N=C/c1cccc(Cl)c1,i,0,7,1,0,1,-7,3,
O=C(COC(=O)c1ccccc1[N+](=O)[O-])Nc1cccnc1Cl,i,·,-15,5,-1,0,·,4,
O=C(Nc1ccccc1)N1CCC(O)(c2cccc(C(F)(F)F)c2)CC1,i,-10,15,-19,0,2,-3,1,
c1ccc2sc(NC3=NCN(C4CCCCC4)CN3)nc2c1,i,-1,·,-20,0,-4,-4,-5,
COc1cc(OC)nc(Nc2nc(C(N)Cc3ccc(Cl)cc3)cs2)n1 (centres undefined),·,·,-14,-6,-10,-10,·,·,
CSc1ncnc2c1ncn2CCCN1CCN(c2ncccn2)CC1,·,·,8,-36,2,2,·,·,
COCCN(C(=O)CCCC(=O)Nc1ccccn1)C(C(=O)NC1CCCC1)c1ccc(C)cc1 (centres undefined),i,-3,·,11,3,3,-6,-8,
COc1cc(NS(=O)(=O)c2cc(C(=O)N3CCN(C(C)=O)CC3)ccc2OC)cc(OC)c1,i,-16,4,4,2,3,-2,-2,
O=C(Cn1cncn1)c1ccc(Cl)cc1,i,1,-7,-3,-8,-3,-4,-9,
CCN(CC(=O)NCCc1ccccc1)S(=O)(=O)c1ccc(C)cc1,i,-3,6,·,-1,0,-2,4,
COc1ccc(CN(C)C(=O)CCN=C2NS(=O)(=O)c3ccccc32)c(OC)c1,·,·,3,-2,6,-5,·,-4,
CS(=O)(=O)N(CC(=O)Nc1ccc2c(c1)OCO2)Cc1ccc(Cl)cc1,i,-2,·,-13,-3,-1,7,17,

# Twelve structures out of the list, arranged by SMILES length, lowest first:
SMILES,Rce1 inh,PABP FP inh,Env fusion inh,UUG fidelity,MT1-MMP act inh,MT1-MMP act inh RFP,eIF4H FP inh,CSC inhib,others
O=C(Cn1cncn1)c1ccc(Cl)cc1,i,1,-7,-3,-8,-3,-4,-9,
Cc1cc(SCC(=O)c2ccccc2)nc(C)n1,i,-4,·,-14,4,7,0,-8,
CCC/C(=N\NC(=O)C1CCCC1)c1ccccc1,i,3,·,-17,-3,2,-3,-4,
c1ccc2sc(NC3=NCN(C4CCCCC4)CN3)nc2c1,i,-1,·,-20,0,-4,-4,-5,
CSc1ncnc2c1ncn2CCCN1CCN(c2ncccn2)CC1,·,·,8,-36,2,2,·,·,
O=C(CNC(=O)c1cccs1)N/N=C/c1cccc(Cl)c1,i,0,7,1,0,1,-7,3,
COc1cc(OC)nc(Nc2nc(C(N)Cc3ccc(Cl)cc3)cs2)n1 (centres undefined),·,·,-14,-6,-10,-10,·,·,
O=C(Nc1ccccc1)N1CCC(O)(c2cccc(C(F)(F)F)c2)CC1,i,-10,15,-19,0,2,-3,1,
CS(=O)(=O)N(CC(=O)Nc1ccc2c(c1)OCO2)Cc1ccc(Cl)cc1,i,-2,·,-13,-3,-1,7,17,
COc1ccc(CN(C)C(=O)CCN=C2NS(=O)(=O)c3ccccc32)c(OC)c1,·,·,3,-2,6,-5,·,-4,
COCCN(C(=O)CCCC(=O)Nc1ccccn1)C(C(=O)NC1CCCC1)c1ccc(C)cc1 (centres undefined),i,-3,·,11,3,3,-6,-8,
COc1cc(NS(=O)(=O)c2cc(C(=O)N3CCN(C(C)=O)CC3)ccc2OC)cc(OC)c1,i,-16,4,4,2,3,-2,-2,

# New compounds follow
SMILES,Rce1 inh,PABP FP inh,Env fusion inh,UUG fidelity,MT1-MMP act inh,MT1-MMP act inh RFP,eIF4H FP inh,CSC inhib,others
CCOc1ccccc1/C=N/NC(=O)c1nnn(-c2nonc2N)c1CN1CCC(C)CC1,i,-12,-7,9,-6,-5,-8,-8,
COc1ccc(-c2cc(C(F)(F)F)n3nc(C(=O)NCCN4CCOCC4)cc3n2)cc1,i,-11,-4,-5,4,2,-10,·,
COc1cc(C(C2C(=O)CC(C)(C)CC2=O)C2C(=O)CC(C)(C)CC2=O)cc(OC)c1OC,i,10,1,5,-1,4,-5,-8,
COc1ccc(OC)c(S(=O)(=O)NCc2cc(-c3ccccc3)no2)c1,i,9,-11,1,-2,3,4,19,
O=C(COCc1ccccc1)N[C@@H](Cc1ccc(O)cc1)C(=O)O,i,3,9,-18,-3,1,3,0,
COc1ccc(/C=C2\SC(N)=NC2=O)cc1,i,-8,-87,-3,-1,-3,2,·,
CCCCCOCC1CC(C/C(C)=N/Nc2nc(-c3ccccc3)cs2)C(=O)O1 (centres undefined),i,12,·,·,2,8,-14,·,
O=C(Nc1cc(Cl)ncn1)c1ccccc1,i,·,10,-13,3,0,·,19,
CC(Cc1ccccc1)NC(=O)c1cc2ccccc2o1 (centres undefined),i,1,-14,-4,-1,2,-5,-2,
CN(CC(=O)N1CCOCC1)S(=O)(=O)c1ccc2ccccc2c1,i,1,13,-9,0,1,2,-12,
O=C(COC(=O)c1ccc(Cl)c(S(=O)(=O)N2CCCCCC2)c1)NCc1ccccc1,·,·,13,3,-2,1,·,·,
COc1ccc(-c2cc(-c3ccc(OC)cc3)nc(-c3ccc4c(c3)NC(=O)CO4)c2)cc1,i,-2,-3,-3,0,-1,-12,17,
O=C(CC(Sc1n[nH]c(-c2ccccc2)n1)c1ccccc1)NCc1ccccc1 (centres undefined),i,4,-12,·,2,-7,1,6,
CC(C)(C)NCC(O)COc1ccc(Br)cc1 (centres undefined),i,-2,3,-11,3,3,5,2,
CCC(=O)N1CCc2cc(S(=O)(=O)CCC(=O)NCc3cccc(OC)c3)ccc21,i,2,6,-9,0,3,-13,-8,
Cc1cccc(N2CCN(C(=O)c3ccc(-n4cncn4)c([N+](=O)[O-])c3)CC2)c1C,i,1,30,-18,7,-5,-6,-7,
CC(C)(C)NC(=S)NC(=O)C12CC3CCC(CC(C3)C1)C2,i,2,0,·,-13,-21,-8,·,
CC(C)N1CCC1(C)C(=O)Nc1ccc2cn[nH]c2c1 (centres undefined),·,·,12,-16,2,5,·,·,
CCc1ccc(N(CC(=O)NC(C)(C)CC)C(=O)CCC(=O)Nc2nccs2)cc1,i,10,-44,3,2,-1,-4,-6,
Cc1ccc(CCNC(=O)CCn2c(=O)c3cccn3c3ccc(F)cc32)cc1,i,-16,6,-31,0,-3,-6,-10,
CCOC(CNc1ncnc2c1cnn2C)OCC,i,4,-2,-16,-3,3,2,1,
O=c1[nH]c(CN2CCN(C/C=C/c3ccccc3)CC2)nc2ccccc12,i,2,·,·,-1,-1,6,-14,
O=C(O)CCNc1ccc(NCCC(=O)O)c2c1C(=O)c1ccccc1C2=O,i,?,22,·,·,·,?,15,
Cc1ccccc1OCCC(=O)NNC(=O)c1ccccc1F,·,·,·,-3,-2,2,·,-15,
CC(=O)Nc1cccc(-c2ccnc3c2CC(C)(C(=O)NCc2cccs2)O3)c1 (centres undefined),·,·,-4,-12,12,-2,·,·,
CC(=O)/C=C1\N(C)c2ccc(C)cc2C1(C)C,i,0,5,·,47*,26*,3,-7,
Cc1ccc2nc(Nc3ccc4[nH]c(=O)[nH]c4c3)c(-n3nc(C)cc3C)nc2c1,i,8,·,-22,-22,-6,4,27,
CCN(CC)S(=O)(=O)c1ccc2oc(Nc3ccc(OC)cc3)nc2c1,i,1,-5,-14,4,1,-2,26,
COc1ccc(OC)c(N(CC(=O)Nc2ccc(NC(C)=O)cc2)S(C)(=O)=O)c1,i,0,·,-9,2,3,14,-6,
CC1CCCCC1NC(=O)/C(C#N)=C/C=C/c1ccccc1[N+](=O)[O-] (centres undefined),i,-16,-97,-12,-56,-24,-6,61,
N=c1c(C(=O)NC2CCCC2)cc2c(=O)n3ccccc3nc2n1CCCN1CCOCC1,i,10,5,-6,0,3,4,·,
Cc1ccc(S(=O)(=O)N(C)C)cc1NC(=O)c1cc(=O)c2ccccc2o1,i,4,-3,-11,3,4,-5,-9,
NC(=O)N/N=C/c1c(F)cccc1F,i,18,-40,·,-6,-2,-2,3,

# Not all compounds are listed. The share of hits here may be higher or lower than overall.
